Calb FLC – C. albicans growth inhibition with fluconazole, primary screen, CaCi-2 strain, Alamar Blue fluorescence. C. albicans CaCi-2 (fluconazole-resistant clinical isolate) + fluconazole, 48 h. 300,000 tested, 0.57% active. AID 1979, 2009. growth inhibition, % (no concentration beside the values);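 active means most replicates above 75%; inconclusive means exactly half above 75%; inactive means most below 75%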;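 further: all wells also contain fluconazole at 8 µg/ml as a sub-toxic cotreatment; 0% = median of DMSO wells and 100% = median of geldanamycin control wells; wells of about 8 µL received 7.5 nL stock; the first replicate is given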
Beta cell apopt – inhibitors of cytokine-induced beta cell apoptosis, primary screen, luminescence; INS-1E cytokine-induced death, ATP luminescence, 48 h; percent of positive-control rescue, neutral wells zero; protection from apoptosis, % (no concentration beside the values); 300,000 tested, 0.8% active; AID 435005, 2010;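 active means all replicates at 75% or more, or half of them and the mean; inconclusive means half reach 75% but not the mean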;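 further: 0% = cytokine-treated negative control wells and 100% = positive control rescue; higher means more ATP so stronger rescue from cytokine killing; wells of about 40 µL received 100 nL stock; the first replicate is given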
T cruzi repl – inhibitors of intracellular T. cruzi growth, primary screen, luminescence, NIH3T3 host cells; T. cruzi beta-gal in NIH3T3, 90 h; AID 1885, 2009; inhibition, % (test concentration not listed); 300,000 tested, 1.4% active;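 active means mean inhibition across valid replicates above about 55%, limit read from the data; inconclusive means mean below that limit but half or more replicates reach it; inactive means mean below it, under half of replicates reach it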;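 further: signal also drops with host cell toxicity which is not excluded here; 0% = plate median of DMSO wells and 100% = zero luminescence signal; higher percent means less beta-gal luminescence so fewer parasites; stock transfer was 50 nL into about 50 µL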
RanGTP-Impb inh – inhibitors of RanGTP-importin-beta interaction, primary screen, biochemical, FRET, CFP-Ran, YFP-importin-beta, homogeneous. cell-free CFP-Ran/YFP-importin-beta FRET ratio. inhibition, % (no concentration beside the values). 300,000 tested, 1.1% active. AID 2216, 2009;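 active means most replicates above 15%; inconclusive means exactly half above 15%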;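 further: 0% = DMSO wells and 100% = Ran loaded with GDP instead of GTP; wells of about 40 µL received 100 nL stock; the first replicate is given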
MLL AF4-AF9 inh – inhibitors of AF4 peptide binding to AF9, primary screen, biochemical, AlphaScreen, biotin-AF4 peptide, FLAG-AF9, single point. Protein AF-9 (Homo sapiens), P42568. inhibition, % at 10 µM. 350,000 tested, 0.47% active;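 active means every replicate reaching a set inhibition limit, whatever the replicate mean, cut at about 25% in these data; inconclusive means mean inhibition reaches that limit but some replicates miss it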;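 further: 0% = plate neutral control median and 100% = total signal loss; the record names both 10 and 1 µM as test concentration; the first replicate is given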
Target sequence (P42568 whole entry, looked up): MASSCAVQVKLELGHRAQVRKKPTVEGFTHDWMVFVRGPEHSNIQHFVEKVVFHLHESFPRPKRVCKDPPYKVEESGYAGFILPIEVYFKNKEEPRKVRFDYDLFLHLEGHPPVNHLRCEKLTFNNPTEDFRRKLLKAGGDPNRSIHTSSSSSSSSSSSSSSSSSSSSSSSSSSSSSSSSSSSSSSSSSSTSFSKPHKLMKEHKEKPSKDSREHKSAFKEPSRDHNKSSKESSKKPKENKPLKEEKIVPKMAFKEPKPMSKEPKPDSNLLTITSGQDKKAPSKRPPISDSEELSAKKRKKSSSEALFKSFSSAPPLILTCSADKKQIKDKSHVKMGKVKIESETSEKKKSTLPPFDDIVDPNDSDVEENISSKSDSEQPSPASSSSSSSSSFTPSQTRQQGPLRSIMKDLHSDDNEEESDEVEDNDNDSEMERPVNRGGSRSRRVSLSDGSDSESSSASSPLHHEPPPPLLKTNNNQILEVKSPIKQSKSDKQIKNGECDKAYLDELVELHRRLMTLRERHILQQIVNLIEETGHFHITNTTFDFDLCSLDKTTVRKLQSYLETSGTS
Vif TR-FRET – inhibitors of Vif binding to APOBEC3G peptide, primary screen, biochemical, TR-FRET, GST-Vif 1-94, biotin-A3G peptide, dose response retest (AID 1117319) | TR-FRET GST-Vif / biotin-A3G peptide binding; higher % means a stronger effect; test concentration not given here; strong numbers were not always called active | inhibition, %; hits with a dose series show IC50 in µM | 260,000 tested, 0.57% active;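 active means above the screen mean plus three standard deviations and confirmed in dose response; inconclusive means results disagree or hit not tested in dose response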;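 further: Vif residues 1-94 fused to GST binding biotinylated APOBEC3G peptide 110-148; 0% = full assay without inhibitor and 100% = GST in place of GST-Vif; retest series ran down from 100 µM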
LANA-H2A inh – blockers of LANA interaction with H2A/H2B – biochemical, FP readout, HTS, primary screen. cell-free LANA-H2A/H2B peptide, fluorescence polarization. inhibition, % (concentration not given with the values). 320,000 tested, 0.6% active. AID 2629, 2010; in the data active means inhibition mostly above about 10%, no sharp cut-off; inactive means mostly below about 6.7%;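 further: stock transfer was 7.5 nL into about 10 µL; 0% = median of vehicle wells and 100% = median of positive control wells; one replicate is shown; the record names a cut of 25% in any replicate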
Bfl-1 A1 inh – caspase 3/7 activation in MEF A1-2A-BIM cells, primary screen, A1 inhibitor project, cell-based, luminescence, HTS | Caspase-Glo 3/7 luminescence, 3 h; percent of clofoctol response, vehicle zero | caspase activation, % (concentration not given with the values) | 330,000 tested, 0.066% active;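 active means over half of replicate activation scores above 10%, or exactly half above 10 with the replicate mean above 10; inconclusive means replicate mean below 10 yet half the replicates above 10; inactive means over half of replicates below 10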;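 further: wells of about 30 µL received 50 nL stock; many hits fall short of the cut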
Active calls of the source: *; ? = inconclusive; / = no result given.

Values in the order: Calb FLC	Beta cell apopt	T cruzi repl	RanGTP-Impb inh	MLL AF4-AF9 inh	Vif TR-FRET	LANA-H2A inh	Bfl-1 A1 inh
COc1ccc(S(=O)(=O)N2CCCC(C(=O)O)C2)cc1Cl (stereo not given)
 : 8	-6	-6	6.1	/	1%	-9.6	-0.4
CCOc1ccc(C(=O)NC(C(=O)NCc2cccnc2)C(C)C)cc1 (stereo not given)
 : -6	-5	-15	7.0	1.1	/	-7.5	-0.4
Cc1nc(NCC(c2ccccc2)N(C)C)c2c(C)c(C)sc2n1 (stereo not given)
 : -2	0	51	5.4	-43	/	-2.2	-0.1
CC(C)(C)C(=O)Cn1ncc(N2CCOCC2)c(Br)c1=O
 : 0	-3	2	-1.2	-0.9	-2%	5.4	0.5
CCCC(C)C(=O)NCc1ccncc1 (stereo not given)
 : 1	/	-1	-2.0	3.2	-6%	-7.9	-0.3
Cc1cccc(/C=N/n2c(-c3ccncc3)n[nH]c2=S)c1
 : -1	-2	-8	3.8	/	-7%	0.3	2.0
CC(C)(C)NC(=O)NC(=O)COC(=O)COc1ccc2c(c1)CCC2
 : 11	-4	-7	?	/	-1%	-2.0	-0.1
COc1cc(CC(=O)OCC(=O)Nc2sccc2C(N)=O)cc(OC)c1OC
 : 3	3	-10	3.4	-0.8	0%	-1.3	1.3
CCn1cc(C(=O)N[C@H](C(=O)NCCCn2ccnc2)C(C)C)c(=O)c2cc3c(cc21)OCO3
 : 0	-15	-19	-0.3	2.4	2%	2.6	-0.5
Cn1c(CN2CCOCC2)nnc1SCC(=O)NCCc1ccccc1
 : -6	2	-8	-5.1	/	-1%	2.5	1.1
O=C(COc1ccccc1Cl)Nc1ccc(NC(=O)c2ccco2)cc1
 : 7	0	-19	-0.6	1.2	/	1.5	0.2
O=C(Cn1c(=O)cnc2ccccc21)Nc1cccc(S(=O)(=O)N2CCCCC2)c1
 : /	2	/	/	1.1	-11%	1.4	-0.4
COc1cccc(CN2C(=O)C(C)Oc3ccccc32)c1 (stereo not given)
 : -7	-5	-6	1.0	3.7	-5%	0.5	-0.4
COc1ccc(OC)c(NC(=O)C2C3C=CC(C3)C2C(=O)NCc2ccccn2)c1 (stereo not given)
 : -13	-4	-5	4.3	/	25%	-2.1	0.0
CC12CCC(C1)C(C)(C)C2NS(=O)(=O)c1ccc(F)cc1 (stereo not given)
 : /	5	/	/	-3.7	/	-2.2	0.4
COc1ccc(-n2c(-c3ccc(Br)cc3)n[nH]c2=S)cc1
 : 21	0	-2	-2.2	-9.0	/	10	-0.4
Cc1nn(-c2cc(N3CCCCC3)ccc2[N+](=O)[O-])c(=O)c2ccccc12
 : ?	/	43	-3.7	/	0%	3.3	-0.6
CCc1cccc(N(C(=O)c2csnn2)C(C(=O)NC(C)(C)C)c2ccncc2)c1 (stereo not given)
 : 3	/	4	-1.0	0.4	11%	6.7	0.7
CCOC(=O)CN1C(=O)N[C@@H](c2ccco2)C(C(=O)OC)=C1C
 : -2	3	-7	6.2	/	/	-5.4	0.0
COCC(=O)N(c1ccc(C(C)C)cc1)C1C=CS(=O)(=O)C1 (stereo not given)
 : -5	/	5	-3.6	0.4	-4%	4.3	0.6

Fetched one by one from the list above (2):
Values in the order: Calb FLC	Beta cell apopt	T cruzi repl	RanGTP-Impb inh	MLL AF4-AF9 inh	Vif TR-FRET	LANA-H2A inh	Bfl-1 A1 inh
CC(C)(C)NC(=O)NC(=O)COC(=O)COc1ccc2c(c1)CCC2
 : 11	-4	-7	?	/	-1%	-2.0	-0.1
CCCC(C)C(=O)NCc1ccncc1 (stereo not given)
 : 1	/	-1	-2.0	3.2	-6%	-7.9	-0.3

(cont.)
Values in the order: Calb FLC	Beta cell apopt	T cruzi repl	RanGTP-Impb inh	MLL AF4-AF9 inh	Vif TR-FRET	LANA-H2A inh	Bfl-1 A1 inh
O=C(Nc1nnc(C2CC2)s1)c1ccc(Cl)nc1
 : /	-7	/	/	0.6	0%	3.2	-2.1
Cc1ccc(C(=O)Nc2ccc(S(=O)(=O)N3CCOCC3)cc2)cc1
 : 0	0	-5	-3.2	1.7	-6%	17	0.5
CCOC(=O)C1C(=O)CC(C)(O)C(C(=O)OCC)C1c1cc(Br)ccc1OC (stereo not given)
 : -1	-7	4	1.3	/	-1%	-0.2	0.0
CC(C)Oc1ccc(/C=C(/NC(=O)c2ccccc2)C(=O)NCCC(=O)O)cc1
 : -6	/	-7	6.3	-6.3	-1%	-0.7	0.1
O=C(Nc1nc(-c2ccc(S(=O)(=O)N3CCCC3)cc2)cs1)c1ccco1
 : 8	0	11	-1.1	/	-9%	-1.9	0.7
O=c1[nH]cc(COCc2ccccc2)c(=O)[nH]1
 : 38	-13	3	6.8	/	0%	7.0	0.2
COc1ccc(CNc2c(CO)cnc3c2cnn3C)cc1
 : 1	3	-8	2.5	0.2	3%	1.5	-0.5
O=C(COC(=O)c1cccc(S(=O)(=O)N2CCc3ccccc32)c1)Nc1ncc(C(F)(F)F)cc1Cl
 : 13	-1	-4	-1.8	/	/	-3.0	0.0
CC(C)(C)S(=O)(=O)c1nc2ccccc2s1
 : -22	-8	-13	-2.7	/	5%	3.4	0.1
N#CCSC1=Nc2ccccc2C2=NC(CCC(=O)N3CCN(c4ccccc4)CC3)C(=O)N12 (stereo not given)
 : 8	4	-11	3.7	/	12%	-2.7	-0.5
O=C(Nc1nccs1)c1c(O)c2c([nH]c1=O)CCCC2
 : 7	0	8	4.3	-7.6	/	5.6	0.2
COc1ccc([C@@H]2C=C(C(=O)O)O[C@H](OCCCCO)C2)cc1
 : 1	-21	-25	1.7	0.9	-5%	3.4	-0.7
CCN(CC)C(=O)c1cccc2c1C(=O)c1ccccc1-2
 : -9	-5	6	2.3	/	0%	-0.6	1.0
O=C1c2ccccc2N(Cc2ccc(Cl)cc2)C2=NCCN12
 : -10	2	-9	0.5	-1.2	-8%	1.7	0.2
CC1(C)Cc2c(c(N3CCOCC3)nc3sc(C(=O)Nc4ccc(Cl)cc4)c(N)c23)CO1
 : -4	1	11	4.6	-18	/	-2.8	0.7
Cc1ccc(CNC(=O)COC(=O)CCC(=O)c2cccs2)cc1
 : -2	-6	-13	0.9	-2.5	3%	-1.1	1.1
Cc1cc(S(=O)(=O)Nc2ccc(C(=O)NCCCn3ccnc3)cc2)ccc1F
 : 0	0	-11	/	4.9	/	-1.9	0.4
Cc1nn(-c2ccccc2)c(N2CCCC2)c1/C=C1\N=C(c2ccc(F)cc2)OC1=O
 : -20	1	-10	2.5	4.2	2%	3.0	-0.7
CCOC1=C/C(=C/c2c(N)n3nc(S(=O)(=O)CC)sc3nc2=O)C=CC1=O
 : -1	1	12	4.0	0.0	5%	-17	0.0
O=C(CCS(=O)(=O)c1ccc2c(c1)NC(=O)CO2)NCCc1ccc(Cl)cc1
 : 0	-4	10	1.5	0.3	/	4.4	0.9
C=CCNC(=O)c1ccncc1
 : 16	/	-11	-0.9	6.2	70%	-1.3	0.1
Cc1nnc(SCc2cnc(-c3ccccc3)o2)[nH]c1=O
 : 5	5	-9	3.4	/	-2%	-5.6	0.2
Cc1ccc(-c2nc3ccccc3c(=O)n2NC(=O)c2cccs2)cc1
 : -23	4	5	-1.9	0.3	/	-1.5	0.4
Cc1oc(C(C)(C)C)c(CN2CCOCC2)c1C(=O)O
 : 2	-3	0	-4.4	-0.7	-2%	-6.0	0.1
CN(C)CCCCOc1ccc(Br)cc1Cl
 : 1	-4	39	-0.6	1.5	/	-0.8	-0.2
Cc1cc(C)nc(N/N=C/c2ccccc2OCc2ccc(Cl)cc2)n1
 : -6	6	0	1.5	/	/	/	-1.3
COC(=O)Cn1cnc2c(nnn2-c2ccc(F)cc2)c1=O
 : -2	-3	-5	-1.6	-4.8	/	-0.5	-0.1
CC1CCN(S(=O)(=O)c2ccc(NC(=O)N3c4ccccc4Sc4ccccc43)cc2)CC1
 : 44	8	37	-1.7	/	-2%	-1.4	-0.8
CCc1ccc(C(=O)C(C)OC(=O)Cn2cnc3c2c(=O)n(C)c(=O)n3C)cc1 (stereo not given)
 : 14	/	-8	7.2	-17	1%	-0.5	-0.2
CSCCC(NC(=O)c1ccc([N+](=O)[O-])cc1Cl)C(=O)OCC(=O)NC(=O)CN1CCCC1=O (stereo not given)
 : -2	-1	-15	3.8	-2.8	5%	12	0.0
CCCOc1ccc(CCC(=O)N/N=C/c2ccco2)cc1
 : -1	-9	1	0.6	2.2	6%	3.9	0.1
O=C(O)c1ccc(-c2noc(-c3cccc(Cl)c3)n2)cc1
 : /	0	/	/	1.2	/	-1.5	-17
CCCCN1C2CCCC1CC(NC(=O)c1ccccc1Cl)C2 (stereo not given)
 : 19	-2	-28	?	-1.2	/	2.7	-0.6
C[C@H](NC(=O)c1nc[nH]c1C(=O)NC(c1ccccc1)c1ccccc1)C(=O)OCc1ccccc1
 : 15	-13	-8	5.0	/	/	-3.3	1.0
CC1CC(C)CN(C(=O)CN(C)S(=O)(=O)c2ccc3c(c2)c(=O)n(C)c(=O)n3C)C1 (stereo not given)
 : /	3	4	-0.4	2.1	2%	4.0	1.3
CCOC(=O)C1(CC2CCCCO2)CCN(Cc2nc3ccccc3nc2C)CC1 (stereo not given)
 : -17	-2	10	-1.8	5.1	-9%	2.3	-0.4
COC(=O)Nc1ccc(S(=O)(=O)NCc2ccccn2)cc1
 : -21	-4	-13	1.2	-1.5	-7%	-3.8	1.1
CC(=O)Nc1ccc(Nc2nc3ccccc3nc2NS(=O)(=O)c2ccccc2)cc1
 : 16	-2	-9	8.9	-1.3	17%	5.5	0.4
S=C1CCC(c2ccc(Cl)cc2)=NN1c1ccccc1
 : -3	0	-1	0.1	16	6%	3.0	1.0
COc1ccccc1-n1c(SCC(=O)Nc2ccc(F)cc2)nc2c(c1=O)SCC2
 : -5	-8	20	-1.6	-9.8	1%	7.8	0.6
CCCCNC(=O)c1ccc(N2CCOCC2)c(NS(=O)(=O)c2ccc(OC)cc2)c1
 : 21	-3	-6	5.6	/	21%	2.4	-0.7
O=C(CCC(=O)n1ncc2ccccc21)NCc1ccc(F)cc1
 : 2	-5	-6	?	2.8	/	6.7	-0.6
O=C(CCSCc1ccccc1F)NCc1cccnc1
 : 3	0	-11	-0.9	-0.6	-1%	/	-0.1
COC(=O)CN1C(=O)[C@H]2[C@@H](/C=C/c3ccccc3)N3C(=O)CN(Cc4ccc(-c5ccccc5)cc4)C(=O)[C@@]3(C)[C@H]2C1=O
 : /	-3	/	/	-2.3	/	1.1	-0.3
COc1ccccc1N1C(=O)CC1(C#N)c1ccc(OCc2ccccc2)cc1 (stereo not given)
 : -9	-1	16	-3.0	/	5%	2.8	-0.3
COc1ccc(N(CC(=O)N2CCN(c3cccc(C)c3)C(C)C2)S(=O)(=O)c2c(C)n[nH]c2C)cc1 (stereo not given)
 : 8	-1	15	-1.2	7.0	5%	-3.7	-0.2
Cn1c(Cc2ccccc2)nnc1SCC(=O)Nc1ccccc1
 : -10	3	-5	2.2	-0.8	/	-1.0	-0.9

No enrichment for hits; about 4.3% have a hit in one of these screens.
